# Bead autofluor – compound fluorescence in toxin protease inhibitor counterscreen; compound autofluorescence counterscreen, microsphere flow cytometry; hits give high values; fluorescence intensity (test concentration not listed); actives 3.1% (n = 360,000); AID 624483;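 active means at least 3 SD above the mean of all compounds, about 16000 in these data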;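 further: 100 nL of 1 mM stock went into each well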
# Numbers without * were called inactive; & = joins results of further samples. An excerpt; the hit share may differ from the screen's.
SMILES,Bead autofluor
CC(=O)c1cccc(-c2cnc3c(NC=O)cc(-c4ccc(F)cc4)cn23)c1,3907
Cc1csc(=O)n1CCC(=O)OCC(=O)NCc1ccccc1,2900
C[C@@H]1CN([C@@H](C)CO)C(=O)c2c(c3ccccc3n2C)-c2ccccc2CO[C@H]1CN(C)C(=O)C1CC1,3574
Cc1nc2cc(OC(=O)N(C)Cc3cccc(-c4ccncc4)c3)ccc2s1,6305
CC(C)(C)c1ccc(CC(=O)N2CCC2(C)C(=O)NS(=O)(=O)c2cccc(C#N)c2)cc1 (centres undefined),3928
COc1ccc(-c2oc3c(c2C(=O)OCCCO)C(OCCCCCO)CCC3)cc1 (centres undefined),5511
Cc1cc(NC(=O)CS(=O)(=O)c2cn(Cc3cccc(C(F)(F)F)c3)c3ccccc23)no1,3574
Cc1ccccc1CSCC1Nc2ccc(C(=O)NCCc3ccccc3)cc2NC1=O (centres undefined),3875
CC1(C(=O)NCc2cccc3ccccc23)CCN1C(=O)Cc1ccc(-c2ccccc2)cc1 (centres undefined),2968
Cc1onc(-c2ccccc2)c1C(=O)OCC(=O)c1ccc[nH]1,3626
CCOC(=O)[C@]12Cc3cc(OC)ccc3[C@H]1N(CCC(=O)OC)C(=O)c1cc(OC)ccc12,5691
COC(=O)[C@]12CCCCC=C1N(Cc1cccc3ccccc13)C(=O)[C@H](CC(=O)N1CCCCC1)C2,5001
COc1cccc(C(C)=NNc2ccc([N+](=O)[O-])cc2[N+](=O)[O-])c1OC,3289
COc1ccc([C@H]2C[C@@H](n3cc(COC(=O)c4ccccc4)nn3)[C@H](O)CN2Cc2cccs2)cc1,3808
O=C(CN1CCN(C(=O)CNC(=O)c2ccc(-c3ccccc3)cc2)CC1)Nc1ccccc1Cl,2874
C/C(=N\NC(=O)C1CCCC1)c1ccc(NC(=O)C(F)(F)F)cc1,3568
CC(C)C[C@H]1CNC(=O)C(=O)N1C[C@@H]1CCCN1C[C@H](Cc1ccccc1)N1C[C@H](CC(C)C)N(CC2CCCCCC2)C(=O)C1=O,5658
Cc1ccc(F)c(S(=O)(=O)NC(=O)C2(C)CCN2C(=O)C2(c3ccc(Cl)cc3)CCC2)c1 (centres undefined),3769
CC1=C(C(=O)N2CCCCCC2)CC(CC(=O)NCCCCc2ccccc2)C(=O)N1CCC1=CCCCC1 (centres undefined),5250
Cc1ccc(NC(=O)c2cc(-c3cc(F)ccc3OCC3CCCO3)n[nH]2)cc1NS(C)(=O)=O (centres undefined),3118
OC1c2c(F)cccc2N=C2CCCCCN21 (centres undefined),2890
CCCCc1c(-c2ccccc2OC)ncn1CCc1ccc(OC)cc1,5586
COC(=O)c1ccccc1N=NNc1ccc([N+](=O)[O-])cc1,3915
CNc1ncnc2c1ncn2[C@H]1CN(Cc2ccncc2)C[C@@H](CO)O1,3971
CC(=O)Nc1cc(-c2ccc(N(C)C)cc2)cn2c(-c3ccc(F)c(Cl)c3)cnc12,2973

# The closing two entries of the section above are carried over, then new ones follow:
SMILES,Bead autofluor
CNc1ncnc2c1ncn2[C@H]1CN(Cc2ccncc2)C[C@@H](CO)O1,3971
CC(=O)Nc1cc(-c2ccc(N(C)C)cc2)cn2c(-c3ccc(F)c(Cl)c3)cnc12,2973
COc1ccc(-c2csc(C(C)(O)c3cccc(OC)c3)n2)cc1 (centres undefined),3716
CCN(CC)C(=O)c1cccc(-c2csc(C(O)c3ccc(F)cc3)n2)c1 (centres undefined),2915
CCC(C)[C@H]1CNC(=O)C(=O)N1CC(C)(C)C (some centres undefined),4414
CC(C)c1ccc(NC(=O)Nc2nc(C(N)CCc3ccccc3)cs2)cc1 (centres undefined),4334
CCCCN(C)C(=O)c1ccc(Nc2nc(C(N)COCc3ccccc3)cs2)nc1 (centres undefined),4585
O=C(NNC(=O)c1ccco1)c1ccco1,3917
CSCCNC(=O)C1(C)CCN1C(=O)c1sccc1C (centres undefined),2897
O=C(Cn1cc(COc2ccc(Cl)c(Cl)c2)nn1)NS(=O)(=O)c1ccccc1OC(F)(F)F,2821
COc1ccc(C(=O)N2C=Cc3ccccc3C2C#N)cc1 (centres undefined),3719
COc1ccc(CN2Cc3cc(-c4ccccc4)ccc3-n3nncc3C2)cc1,5503
Cc1nc2ccccc2c(=O)n1-c1c(Cl)cccc1Cl,3670
CC(=O)Nc1ccc(N2CCOCC2)c(S(=O)(=O)Nc2ccccc2Cl)c1,3875
COc1ccccc1N1CCN(C(=S)NC(=O)c2ccc([N+](=O)[O-])cc2)CC1,3736
COc1ccc(Cl)c(-c2cc(C(=O)NC(C)C)[nH]n2)c1,3049
CC(=O)c1cccc(NC(=O)C2Cc3c(-c4cccc(C(C)=O)c4)ccnc3O2)c1 (centres undefined),3836
O=C(COC(=O)c1ccc([N+](=O)[O-])o1)Nc1ccc2c(c1)OC(F)(F)O2,4395
O=C1CC(SC(=S)C2CCCC2=O)C(=O)N1 (centres undefined),2911
O=C(c1ccncc1)N(c1ccc(N2CCOCC2)cc1)C(c1ccccc1)c1nc2ccccc2[nH]1 (centres undefined),5522
COC(=O)C1=COC(C)C2CN3CCc4c([nH]c5cc(OC)ccc45)C3CC12 (centres undefined),5450
CCOC(=O)C1CCCN(C(=O)c2ccc(SC(F)(F)F)cc2)CC1 (centres undefined),4227
OC[C@@H]1CN(Cc2ccncc2)C[C@H](n2cnc3c(N4CCN(c5ccccc5)CC4)ncnc32)O1,3812
COc1ccccc1CNC(=O)Nc1nnc([C@H]2C[C@H](O)[C@@H](CO)O2)s1,3451
O=S1(=O)N[C@@H](Cc2ccccc2)COc2cccc(N3CCN(Cc4ccccc4F)CC3)c21,6292
OC[C@@H]1CN(Cc2ccco2)C[C@H](n2cnc3c(N4CCN(c5ccccc5)CC4)ncnc32)O1,3996
CCOC1=C2[C@H]([C@H]3C(=O)N(c4ccccc4)C(=O)[C@H]3C1)[C@@H](C(C)C)N(S(=O)(=O)c1ccc(C)cc1)[C@H]2c1ccccc1,5796

# Three records drawn at random from those above:
SMILES,Bead autofluor
COc1ccc(-c2csc(C(C)(O)c3cccc(OC)c3)n2)cc1 (centres undefined),3716
CSCCNC(=O)C1(C)CCN1C(=O)c1sccc1C (centres undefined),2897
O=C(c1ccncc1)N(c1ccc(N2CCOCC2)cc1)C(c1ccccc1)c1nc2ccccc2[nH]1 (centres undefined),5522

# Carrying on.
SMILES,Bead autofluor
CCOC(=O)[C@]12Cc3c(cc(OC)c(OC)c3OC)[C@H]1N(Cc1ccccc1)C(=O)c1cc(F)c(F)cc12,5115
COc1ccc(-c2coc3c(C(=O)NCc4ccco4)cccc23)c(C)c1,3880
CC1NC(=O)c2cccnc2-n2c1nc1cc(F)ccc1c2=O (centres undefined),3840
CC(C)C[C@H]1CN([C@@H](Cc2ccc(O)cc2)CN2CCC[C@@H]2CN2C(=S)NC[C@@H]2Cc2ccccc2)C(=S)N1CC1CCCCC1,7010
C[C@H]1CN(c2ccccc2)C(=O)[C@@H]1CC(=O)Nc1ccc(Br)cc1,3472
CC1(C(=O)Nc2cnc3ccccc3c2)CCN1C(=O)c1ccccc1CCc1ccccc1 (centres undefined),4011
COc1ccc(CN(C)C(=O)C2CSC3(C)CCC(=O)N23)c(OC)c1 (centres undefined),3491
COc1ccc(C(O)c2nc(-c3cccc(C(C)C)c3)cs2)cc1 (centres undefined),3589
COCCNC(=O)c1cccc2c(-c3cccc(C(N)=O)c3)coc12,2979
CCc1ccc(/C=C2\SC(=S)N(CCCC(=O)N(CCO)c3ccccc3)C2=O)cc1,3707
O=C1NC(=O)C([N+](=O)[O-])=C(O)C1=O,3724
Cc1ccc(NC(=O)c2cc(S(=O)(=O)N3CCCCC3)ccc2N2CCOCC2)c(C)c1,3932
C[C@H]1COc2cc(N3CCN(Cc4ccccc4F)CC3)ccc2S(=O)(=O)N1,5542
COc1ccc(C2CC=C(C(C)=O)CN2S(=O)(=O)c2ccc(Cl)cc2)cc1 (centres undefined),6451&6005
COC(=O)[C@@]1(Cc2ccc(F)cc2)[C@H]2c3cc(C(=O)N(C)C)n(CCO)c3C[C@H]2CN1C(=O)c1ccccc1,5567
CN1CCN(C2CN(Cc3ccc(F)cc3)S(=O)(=O)C2)CC1 (centres undefined),6563
CCCNC(=O)C1(C)CCN1C(=O)Cc1ccc(C(C)C)cc1 (centres undefined),3425
CC(=O)Nc1c([N+](=O)[O-])cc2c3c(cccc13)CC2,4146
CC1(Cc2ccc(Cl)cc2)C(=O)Nc2ccc(S(=O)(=O)NC3CCCCC3)cc21 (centres undefined),3921
CC1(C(=O)NS(=O)(=O)c2ccc(F)cc2F)CCN1C(=O)c1ccccc1 (centres undefined),3910
C(=Nn1cnnc1)c1ccc2c(c1)CCC2,3523
CSCCC(c1nnnn1C1CCCCC1)N1CCC2(CC1)C(=O)NCN2c1ccccc1 (centres undefined),5414
CN(Cc1cnn(-c2ccc(F)cc2)c1)C(=O)[C@H]1O[C@@H](n2cnc3c(N)ncnc32)[C@H](O)[C@@H]1O,4311
COc1ccc(-c2ccc(C(=O)NCC3CC3)c3occc23)c(C)c1,3873
CCCNC(=O)C1(C)CCN(C(=O)COc2ccc(Cl)cc2Cl)C1 (centres undefined),4210
# Carrying on.
SMILES,Bead autofluor
COc1ccc(NC(=O)C2CCN(S(=O)(=O)c3ccc(Cl)c(C(F)(F)F)c3)CC2)cn1,3491
O=C1NC[C@@H]2CCCN2C1=O,4169
O=C(c1ccccc1F)N1N=C(C(F)(F)F)CC1(O)c1ccccc1 (centres undefined),2926
O=S(=O)(Nc1nc(-c2ccco2)c(-c2ccco2)s1)c1ccc(F)cc1F,3589
COc1cc(C(O)c2nc(/C=C/c3ccccc3)cs2)ccc1F (centres undefined),3528
CC1(C(=O)NS(=O)(=O)c2cccc(Cl)c2)CCN1C(=O)C1CCCCC1 (centres undefined),3218
NC(COCc1ccccc1)c1csc(NC(=O)Nc2cccc(Cl)c2)n1 (centres undefined),3708
CCOc1ccc(OCC)c(NC(=O)C2C3C=CC(O3)C2C(=O)O)c1 (centres undefined),3521
CCNC(=O)C1(C)CCN(Cc2ccc(OC(F)(F)F)cc2)C1 (centres undefined),4220
CC(NC(=O)COC(=O)C1CCN(c2ccc(C(F)(F)F)cn2)CC1)c1ccccc1 (centres undefined),3002
CCOC(=O)C1CCCN(C(=O)c2oc3ccccc3c2C)CC1 (centres undefined),4176
COc1cccc(-c2cnc(C(O)c3cccc(F)c3)[nH]2)c1 (centres undefined),4150
OC(c1cccc(Cl)c1)c1nc(/C=C/c2ccc(C(F)(F)F)cc2)cs1 (centres undefined),3362
C[C@@H]1CCCCO[C@H](CN(C)S(=O)(=O)c2cn(C)cn2)[C@H](C)CN([C@@H](C)CO)C(=O)c2cc(NC(=O)c3ccccc3)ccc2O1,3890
CCCc1ccc(C(O)c2ncc(-c3ccccc3)[nH]2)cc1 (centres undefined),3556
CCCS(=O)(=O)NC(=O)C1(C)CCN(C(=O)c2cncc(Br)c2)C1 (centres undefined),4344
COCCN1C[C@@H](CO)O[C@@H](n2cnc3c(N4CCOCC4)ncnc32)C1,3499
COc1ccc(-c2cc3nc(NCCNC(C)=O)n(C)c(=O)c3s2)c(C)c1,4126
CN1CCC(N2CCN(C3CN(Cc4cn(Cc5cccc(C(F)(F)F)c5)nn4)S(=O)(=O)C3)CC2)CC1 (centres undefined),4447
C[C@@H]1CN([C@H](C)CO)C(=O)CCCn2nncc2CO[C@H]1CN(C)Cc1cccc(O)c1,3932
COC(=O)[C@]12CCCCC=C1N(Cc1ccc(Cl)cc1Cl)C(=O)[C@H](CC(=O)N1CCN(C(=O)C3CC3)CC1)C2,5560
Cc1ccc(-c2nc3cc(C)c(Br)c(C)n3c2Cc2cccc(Cl)c2)cc1,4668
CC(C)CC1C(=O)N(Cc2cn(CCC3OCCO3)nn2)CCS(=O)(=O)N1Cc1ccc(-c2cccc(CO)c2)cc1 (centres undefined),3611
Cc1cccc(C)c1C(O)c1ncc(-c2ccccc2C(F)(F)F)[nH]1 (centres undefined),4066
Cc1cc(OC(C)C(=O)NC2CC(C)(C)NC(C)(C)C2)c2c(C)c(C)c(=O)oc2c1 (centres undefined),2969

# Compounds shown so far that have a nitro group on carbon (6):
SMILES,Bead autofluor
COc1cccc(C(C)=NNc2ccc([N+](=O)[O-])cc2[N+](=O)[O-])c1OC,3289
COC(=O)c1ccccc1N=NNc1ccc([N+](=O)[O-])cc1,3915
COc1ccccc1N1CCN(C(=S)NC(=O)c2ccc([N+](=O)[O-])cc2)CC1,3736
O=C(COC(=O)c1ccc([N+](=O)[O-])o1)Nc1ccc2c(c1)OC(F)(F)O2,4395
O=C1NC(=O)C([N+](=O)[O-])=C(O)C1=O,3724
CC(=O)Nc1c([N+](=O)[O-])cc2c3c(cccc13)CC2,4146

# More compounds follow:
SMILES,Bead autofluor
Cc1cccc(C(O)c2ncc(-c3ccc(Cl)cc3)[nH]2)c1C (centres undefined),3776
CCCCNC(=O)c1nc(C2CCN(S(=O)(=O)c3ccccc3)CC2)oc1-c1cccc(C(F)(F)F)c1,5798
CN1CCN(c2ncnc3c2ncn3[C@H]2CN(Cc3cccnc3)C[C@@H](CO)O2)CC1,3570
CC(C)c1ccc(CN2CCC2(C)C(=O)Nc2cnc3ccccc3c2)cc1 (centres undefined),3823
CN(C)c1ccc(CC(=O)N2CCCC(c3cc(C(=O)Nc4ccc(C(C)(C)C)cc4)no3)C2)cc1 (centres undefined),4188
C/C(=N\NC(=O)c1ccccc1-n1cccc1)c1ccccn1,3720
C[C@H]1CN([C@@H](C)CO)C(=O)CCCn2nncc2CO[C@H]1CN(C)C(=O)Nc1ccccc1,3497
COC1OCC(O)C(NC(=O)N(C)N=O)C1O (centres undefined),2938
CCC(Sc1nc2ccsc2c(=O)n1Cc1ccc(C(=O)O)cc1)C(=O)Nc1cc(Cl)ccc1C (centres undefined),3433
CCOC(=O)c1sc2nc(OCCN3CCOCC3)cc(C)c2c1N,6492

# Screening results: PubChem, NMMLSC
